Screens deposited in PubChem by National Center for Advancing Translational Sciences (NCATS).
SARS PLP yeast: inhibitors of SARS-CoV papain-like protease in yeast | S. cerevisiae expressing SARS-CoV PLpro, growth rescue; control for the full effect not named in the record | Potency, µM (top dose mostly 32.9 µM), inactives show at the top dose activity, positive = growth rescue | 0.19% of 330,000 active | AID 485353; active means well fitted rising curve with a large enough effect; inconclusive means small, poorly fitted or top-dose-only effect; inactive means no such curve, though single readings can be large or run the other way; note: 0% is about no effect; nearly all actives have a fitted effect of over 55% in size; growth read by luminescence after 48 h
NS1 function inh: inhibitors of influenza NS1 protein function | 0.4% of 270,000 active | Potency, µM (highest dose often 46.1 µM), inactives show at the top dose activity, positive = more growth | S. cerevisiae slowed by influenza A NS1, growth recovery by OD600; active means well fitted rising curve with a large enough effect; inconclusive means small, poorly fitted or top-dose-only effect; inactive means no such curve, though single readings can be large or run the other way; note: nearly all actives have a fitted effect of over 50% in size
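In this qHTS, NS1 from influenza A is expressed in budding yeast, where it slows growth. Cells are switched from glucose to 2% galactose medium (pH 6.0, -URA), treated with compound, and growth recovery is read at OD600.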
Cruzain inh Det: inhibitors of Trypanosoma cruzi cruzain with detergent | purified cruzain, Z-FR-AMC fluorescence, 0.01% Triton | Potency, µM, without a hit: max response, negative = inhibition, hits mostly inhibitors | 0.43% of 200,000 active | AID 1478;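 note: plate controls were neutral wells for no effect and buffer without enzyme for full effect; nearly all actives have a fitted effect of over 40% in size; top concentration of the series not given in the record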
Target sequence (P25779 123-467 limits assumed): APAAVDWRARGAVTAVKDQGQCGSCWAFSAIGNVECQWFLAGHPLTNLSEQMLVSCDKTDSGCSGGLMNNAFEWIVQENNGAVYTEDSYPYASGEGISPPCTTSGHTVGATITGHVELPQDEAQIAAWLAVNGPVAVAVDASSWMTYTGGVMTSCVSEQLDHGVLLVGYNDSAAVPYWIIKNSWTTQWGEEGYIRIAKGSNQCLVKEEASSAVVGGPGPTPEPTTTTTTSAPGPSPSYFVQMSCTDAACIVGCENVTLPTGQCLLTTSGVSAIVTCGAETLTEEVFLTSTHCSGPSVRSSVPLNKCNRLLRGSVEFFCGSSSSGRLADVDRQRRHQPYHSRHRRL
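Detergent-containing arm of a paired screen for aggregation-based inhibition: 0.01% Triton X-100 present. Cruzain at 1.5 nM cleaved 2 uM Z-FR-AMC at pH 5.5 with 5 mM DTT; AMC fluorescence gain over 60 s measured activity.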
MARV entry inh: inhibitors of Marburg virus binding or cell entry; Potency, µM (doses to about 37.8 µM), for the others: at the highest dose activity change, negative = inhibition, most hits filed as inhibitors; AID 540276; Marburg virus pseudotyped entry inhibition, cell reporter; control for the full effect not named in the record; about a third of the inactives were read at about 46 µM; 1.8% of 300,000 active; active = well fitted inhibition curve with a large enough effect; inconclusive = small, poorly fitted or top-dose-only effect, or effect the other way; inactive = flat fitted curve, though single readings scatter; tested in HEK293 cells; about a fifth of its hits are not listed in these tables; note: % is set by controls: 0 for no effect and ±100 for the full control effect; luciferase read-out
2A StopGo: lowers the luciferase signal of an FMDV 2A StopGo reporter | Potency, µM (top dose mostly 57.9 µM), without a hit: at the highest dose signal change, negative = less light | 1.2% of 410,000 active | AID 1159524 | human cells with a luciferase reporter of 2A StopGo recoding; control for the full effect not named in the record; active = well fitted falling curve with a large enough effect; inconclusive = small, poorly fitted or top-dose-only effect; inactive = no such curve, though single readings can be large or run the other way; tested in HEK293T cells; note: % is set by controls: 0 for no effect and ±100 for the full control effect; nearly all actives have a fitted effect of over 45% in size; luciferase light after 4 h
Lassa entry inh: Lassa virus entry inhibition; Lassa virus pseudotype entry inhibition, cell reporter; control for the full effect not named in the record; Potency, µM (titrated, usually from 37.9 µM), for the others: at the highest dose activity change, negative = inhibition, hits mostly inhibitors; 1.2% of 300,000 active; active means well fitted inhibition curve with a large enough effect; inconclusive means small, poorly fitted or top-dose-only effect, or effect the other way; inactive means flat fitted curve, though single readings scatter; tested in HEK293 cells; note: % is set by controls: 0 for no effect and ±100 for the full control effect; nearly all actives have a fitted effect of over 50% in size; luciferase read-out
RE007 growth inh: less growth of the S. pombe RE007 Vpr strain; S. pombe RE007 Vpr strain, BacTiter-Glo ATP luminescence, 24 h; control for the full effect not named in the record; Potency, µM (series often up to 92.2 µM), inactives show top-dose activity change, negative = less growth; 0.21% of 360,000 active; active = well fitted falling curve with a large enough effect; inconclusive = small, poorly fitted or top-dose-only effect; inactive = no such curve, though single readings can be large or run the other way;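 note: % is set by controls: 0 for no effect and ±100 for the full control effect; nearly all actives have a fitted effect of over 50% in size; the assay follows cell death caused by Vpr and the record does not say whether a fall means rescue or toxicity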
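Fission yeast strain RE007, carrying one chromosomally integrated HIV-1 vpr copy, was seeded at OD 0.01 in PMG+AL medium with 23 nL pinned compound. After 24 h at 30 °C and 99% humidity, viability was read by BacTiter-Glo luminescence.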
Cruzain noTriton: cruzain (T. cruzi) inhibition without detergent; P25779; purified cruzain, Z-FR-AMC fluorescence, no detergent; Potency, µM, for inactives: max response, negative = inhibition, most hits filed as inhibitors; 2.3% of 200,000 active; AID 1476;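 note: plate controls were enzyme without inhibitor for no effect and buffer without enzyme for full effect; nearly all actives have a fitted effect of over 40% in size; top concentration of the series not given in the record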
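Purified cruzain at 1.5 nM, pre-incubated 15 min with compound at room temperature in 100 mM sodium acetate pH 5.5, 5 mM DTT, 0.00005% Triton X-100. Reaction started with 2 uM Z-FR-AMC; AMC fluorescence increase over 60 s gives rate.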
* = called active by the depositor; ? = inconclusive; / = not tested or not shown; & = joins results of further samples; [ ] = another dose, or the depositor's remark. Unless noted, calls come from the whole dose curve; as a rule, active = well fitted curve in the direction sought with a large enough effect; inconclusive = small, poorly fitted or top-dose-only effect, or another doubt; inactive = no such curve, though single readings can be large; an effect the other way counts as inactive or inconclusive. Potency is the fitted concentration of half-maximal effect. Outcome played no part in choosing rows. Share with any hit: about 4.5%.

SMILES	SARS PLP yeast	NS1 function inh	Cruzain inh Det	MARV entry inh	2A StopGo	Lassa entry inh	RE007 growth inh	Cruzain noTriton
O=c1cc(N2CCN(c3ccc(F)cc3)CC2)[nH]c(=O)n1-c1ccc(Br)cc1	/	/	1.9%	/	-11%	8%[46.1 µM]	/	3%
Cc1ccc(CCNC(=O)c2ccc3c(Cl)c4c(nc3c2)CCCC4)cc1	/	/	1.7%	9%[46.1 µM]	0%	-13%[46.1 µM]	/	-8%
CC(=O)NC(CC(=O)NCCCn1ccc2ccccc21)c1ccccc1 (configuration not stated)	1%	22%	/	-4%[46.1 µM]	9%	7%	-16%	/
CC(C)=C1C(=O)NN(c2ccc(F)c(Cl)c2)C1=O	1%	15%	-2.0%	13%	25%	-17%[14.3 µM]	9%	0%
COc1ccc(NC(=O)C(=O)NNC(=O)c2ccc(Cl)cc2Cl)cc1	-5%	-7%	/	/	0%	/	-19%	/
CCn1c(=O)c(C(=O)NCc2ccccc2OC)c(O)c2ccccc21	2%	9%	/	/	-19%	/	-15%	/
O=c1[nH]c(CN2CCOCC2)nc2cc(Cl)ccc12	-5%	/	/	0%[46.1 µM]	-12%	-5%[46.1 µM]	4%	/
CN(C)S(=O)(=O)c1ccc(S(=O)(=O)N(CC(=O)Nc2ccccc2)Cc2ccco2)cc1	4%	?	1.2%	?	-18%	8%	-19%	?
Cn1c(CCC(=O)OCC(=O)NCc2ccccc2Cl)nc(=O)c2ccccc21	-1%	/	/	3%[46.1 µM]	12%	-17%[46.1 µM]	0%	/
CS(=O)(=O)Oc1ccc2c(c1)O/C(=C\C=C\c1ccccc1)C2=O	-2%	-33%	/	-14%[46.1 µM]	-7%	?	-11%	/
C=CCN1C2CCCC1CC(NC(=O)Nc1cc(C)cc(C)c1)C2 (configuration not stated)	0%	-1%	/	-29%[46.1 µM]	-15%	3%	-5%	/
CCC1=NN(C(=O)C(=O)NCCc2ccccc2)C(O)(C(F)(F)F)C1 (configuration not stated)	-4%	23%	-0.2%	?	/	15%	-4%	6%
O=C(CCc1nc(C2=CCN(Cc3cccc(Cl)c3)CC2)no1)Nc1ccccc1F	/	/	2.4%	/	?	?	/	-10%
O=C(COC(=O)c1cc(=O)[nH]c2ccccc12)Nc1ccc(F)cc1	-4%	/	/	10%	-18%	17%	2%	/
CCOC(=O)C1=C(C)N=c2s/c(=C3/C(=O)Nc4ccccc43)c(=O)n2C1c1ccc(C)cc1 (configuration not stated)	-4%	?	-1.9%	0%	-18%	-23%	-7%	8%
COc1ccc(N(CC(=O)O)S(=O)(=O)c2cccnc2)cc1	5%	-6%	-0.7%	?	-10%	-5%	-12%	2%
O=C(CSc1ccc2nc(-c3ccccc3)cn2n1)Nc1ccccc1	/	/	-1.1%	/	40%[activator]	?	/	?
COc1ccccc1NS(=O)(=O)c1cc(NC(=O)c2sccc2C)ccc1N1CCOCC1	2%	-17%	/	/	47%[activator]	/	2%	/
COc1ccc(-c2noc(C3CCCN(C(=O)CCc4ccccc4)C3)n2)cc1 (configuration not stated)	-15%	-58%	-1.8%	0%	-10%	-21%	0%	8%
CCOc1ccccc1OCCCOc1ccc(C)cc1Cl	-17%	-4%	-4.5%	13%	-1%	?	-18%	0%
COC(=O)c1cn(C(=O)/C=C/c2ccc(OC)c(OC)c2)c2ccccc12	0%	2%	/	?	-19%	?	-23%	/
NC(=O)c1ccc(S(=O)(=O)N2CCSCC2)cc1	4%	-4%	/	1%[46.1 µM]	-7%	3%[46.1 µM]	-11%	/
Cn1c(SCc2ccc(F)cc2)nnc1-c1ccccn1	0%	-15%	1.6%	?	25%	?	-5%	10%
Cc1nc(C)c(-c2ccc(SCC(=O)Nc3ccccc3)nn2)s1	1%	1%	/	-28%	?	-22%	-15%	/
O=S(=O)(c1ccc(Cl)cc1)N1CCC(N2CCCCCC2)CC1	-1%	-6%	6.7%	-6%&-6%	3%	-27%	-6%	-2%
CCOC(=O)Cn1cc(/C=N/NC(=O)c2ccc(C#N)cc2F)c2ccccc21	-9%	1%	-11%	4%	20%	-14%	-12%	6%
Cc1ccc(NC(=O)CCCn2c(=O)oc3ccccc32)c(O)c1	3%	-12%	/	/	13%	/	2%	/
O=[N+]([O-])c1cccc(Nc2c([N+](=O)[O-])ccc3nonc23)c1	0%	-2%	/	2%	-23%	3%	0%	/
C/C(CC(=O)Nc1cccnc1)=N\NC(=O)C(=O)Nc1cccc(C)c1	-12%	8%	0.8%	2%	13%	-8%	-12%	6%
COc1cc(/C=C/c2nc(C#N)c(N3CCCCCC3)o2)cc(OC)c1OC	/	/	44%[activator]	?	-28%	?	/	?
Cc1sc(NC(=O)C2CCCCC2C(=O)O)c(C(N)=O)c1-c1ccc(C(C)(C)C)cc1 (configuration not stated)	?	6%	-16%	9%	0%	?	31%	?
CCOC(=O)C1=NN(C(=O)COc2ccccc2)C(O)(c2ccc(Cl)cc2)C1 (configuration not stated)	1%	1%	/	-5%[46.1 µM]	4%	/	-7%	/
Cc1ccc(-c2noc(CCC(=O)N(C)c3ccccc3F)n2)cc1	/	/	-5.3%	19%[46.1 µM]	-13%	?	/	4%
Cc1c(Cl)cnc(NC(=O)CSc2nnc3ccccn23)c1Cl	4%	10%	-0.6%	2%	53%[activator]	?	3%	-14%
CCCn1c(C)cc(C)c(C#N)c1=O	25%	5%	1.9%	-4%	-14%	2%	18%	2%
CCc1c(C)sc2nc(SCC(=O)Nc3cc(C)on3)n(CCOC)c(=O)c12	3%	-1%	1.7%	4%	-17%	2%	-2%	0%
Cc1ccc(NC(=S)NC(C)CCc2ccccc2)cc1C (configuration not stated)	-52%	-35%	-11%	-21%	-7%	-9%	25%	-19%
Cc1ccc(-c2cc(C(=O)Oc3ccc(C#N)cc3)no2)cc1	/	/	-3.0%	?	-3%	0%[46.1 µM]	/	2%
Clc1cccc(-c2cc3nc4c(c(N5CCOCC5)n3n2)CCCC4)c1	-21%	-68%	-14%	?	/	-20%	4%	-24%
COc1ccccc1OCc1ccc(C(=O)c2ccccc2)cc1	-3%	-13%	/	?	3%	8%[46.1 µM]	-12%	/
COc1cc(OC)cc(C(=O)Nc2cccc(N3CCCC3)c2)c1	0%	10%	-5.5%	-5%	/	22%	3%	?
COc1ccc(C(=O)NCC(=O)OCC(=O)c2ccc3c(c2)NC(=O)CO3)cc1OC	1%	/	/	?	-16%	0%	0%	/
O=C(NCc1cccnc1)c1sc2ccccc2c1Cl	-14%	-10%	-3.0%	?	24%	3%	-11%	-2%
C=CCSc1nc(C)c(CC(=C)C)c(=O)[nH]1	1%	0%	/	1%[46.1 µM]	28%	2%[46.1 µM]	15%	/
CCC(C(=O)Nc1cccc(S(=O)(=O)N(C)c2ccccc2)c1)c1ccccc1 (configuration not stated)	-1%	/	/	?	0%	11µM*	19%	/
CN(C(=O)c1cccc(NC(=O)c2cccs2)c1)c1ccccc1	3%	22%	/	-28%	-28%	2%	-7%	/
CCNC(=O)/C(C#N)=C/c1c(N2CC(C)OC(C)C2)nc2ccccn2c1=O (configuration not stated)	-3%	12%	-5.7%	-7%	3%	24%	19%	4%
CNC(=O)CSc1nnc(-c2ccco2)n1-c1cccc(C)c1	?	8%	/	?	-9%	15%	14%	/
CCc1ccc(C(=O)COC(=O)CNC(=O)CNC(=O)Cc2ccccc2)cc1	0%	-5%	2.6%	-5%	10%	17%	8%	-12%
COc1ccc(C(=O)N2CCN(Cc3ccccc3[N+](=O)[O-])CC2)cc1	-2%	-17%	/	/	-8%	/	-7%	/
O=C1NC(=S)N(c2cccc(Cl)c2)C12CCCCC2	?	5%	-4.0%	-1%	-25%	?	29%	12%
CCn1c(C(C)NS(=O)(=O)c2ccc(Cl)cc2)n[nH]c1=S (configuration not stated)	-7%	4%	/	?	5%	-5%[46.1 µM]	3%	/
Cc1ccc(-n2nc3c(c2NC(=O)CC(C)C)CS(=O)(=O)C3)c(C)c1	0%	1%	/	/	3%	/	15%	/
Cc1nn(C(C)C(=O)NCC2CCCO2)c(C)c1[N+](=O)[O-] (configuration not stated)	0%	0%	/	/	-6%	/	2%	/
CC(=O)Nc1ccc(CN2CCN(CC=C(C)C)C(CCO)C2)cc1 (configuration not stated)	-1%	-2%	/	/	1%	/	1%	/
CSc1ccc(CN(C)Cc2nc3cc(C(F)(F)F)ccc3c(=O)[nH]2)cc1	1%	/	/	-22%[46.1 µM]	-19%	5%	-5%	/
CCc1ccc(CN(C(=O)COc2c(C)cccc2C)C2CCS(=O)(=O)C2)cc1 (configuration not stated)	0%	-1%	/	/	14%	/	1%	/
O=C(COC(=O)C1CCN(c2ccc(C(F)(F)F)cn2)CC1)c1cccc(Br)c1	/	/	/	-7%[46.1 µM]	-17%	-10%	2%	/
O=C(NCCc1ccc(Cl)cc1)c1ccc2c(c1)N(Cc1cccc(Cl)c1)C(=O)c1ccccc1S2(=O)=O	/	/	1.5%	/	-11%	-2%[46.1 µM]	/	10µM*
COc1cc(C(=O)NCCC(=O)NCc2ccc3c(c2)OCO3)cc(OC)c1OC	-6%	-6%	0.3%	15%	20%	-17%[14.3 µM]	2%	7%

(continued)
SMILES	SARS PLP yeast	NS1 function inh	Cruzain inh Det	MARV entry inh	2A StopGo	Lassa entry inh	RE007 growth inh	Cruzain noTriton
CCCCCN(C(=O)CCC(=O)OCC(=O)N(C)C1CCCCC1)c1c(N)n(CCCC)c(=O)[nH]c1=O	2%	/	/	?	-3%	-8%	2%	/
CCOc1ccc(NC(=O)CC2C(=O)N(c3cccc(C)c3)C(=O)N2Cc2cccnc2)cc1 (configuration not stated)	/	/	-3.7%	/	-7%	0%[46.1 µM]	/	?
COC(C(=O)Nc1ccnn1C1CCN(C(=O)c2ccc(C)cc2)CC1)c1ccccc1 (configuration not stated)	0%	-7%	/	/	-1%	/	12%	/
CN(Cc1cnn(C)c1)C(=O)c1ccc(OC2CCN(CCc3ccccc3)CC2)cc1	0%	6%	/	/	-19%	/	2%	/
Cc1ccc(-c2nc(N=Nc3ccc(O)cc3)n[nH]2)cc1	-10%	-18%	-12%	-6%	35%[activator]	?	2%	-9%
COc1ccccc1-n1c(C)c(C(=O)O)c2cc(OC)c3ccccc3c21	-3%	?	/	/	-20%	/	13%	/
